# Screens as filed in PubChem BioAssay.
# D2 agonist: Beta-Arrestin HTS for Positive Allosteric Modulators of the Human D2 Dopamine Receptor: Agonists | DiscoveRx PathHunter D2 beta-arrestin, luminescence, 90 min; 100% = 57 uM dopamine signal | activation, % (concentration not given with the values) | hit rate 0.084% among 360,000 | AID 624465, 2012; in the data active = activation above about 40%; inconclusive = about 15% to 40%; inactive = below about 15%; also: compound concentration not given in the record; the text of the record calls up to 30% inactive
#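 Agonist mode: compounds alone added to overnight-plated D2 PathHunter cells for 90 min at 37 C, with 57 uM final dopamine (EC100) defining full response. Beta-arrestin recruitment detected by chemiluminescent reagent, read after 1 h at ambient temperature.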
# D2 PAM: Beta-Arrestin HTS for Positive Allosteric Modulators of the Human D2 Dopamine Receptor: Potentiators; DiscoveRx D2 beta-arrestin cells, luminescence, 90 min; 100% = 57 uM dopamine signal; AID 624464, 2012; hit rate 0.23% among 360,000; D(2) dopamine receptor (Homo sapiens), P14416; potentiation, % (concentration not given with the values); active = potentiation of 50% or more; inconclusive = 30% to 50%; inactive = 30% or less;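 also: compound concentration not given in the record; tested on top of an EC20 dose of dopamine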
#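 PathHunter beta-arrestin assay in DiscoveRx D2 cells. Compounds were added with an EC20 of dopamine (50 nM final) for 90 min at 37 deg C. Luminescence was read 1 h after detection reagent, with 57 uM dopamine as the EC100 control.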
# TRPML1 ag: qHTS for Agonists of the Human Mucolipin Transient Receptor Potential 1 (TRPML1); TRPML1-expressing cells, Ca2+ dye fluorescence, FDSS; host cell line not named in the record; reference of the full effect not given here; hit rate 0.12% among 410,000; Mucolipin-1 (Homo sapiens), Q9GZU1; AID 624414, 2012; activation, % (test concentration not listed); in the data active = activation above about 50%; inconclusive = about 30% to 50%; inactive = below about 30%; also: 0% is about no effect; the text of the record puts the active cut at 80%
#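 Agonist activity was taken from a 110 s kinetic Ca2+ dye read on the FDSS after pinning compounds onto TRPML1-DL cells. The cells were seeded at 1,500/well with Tet inducer, incubated about 16 h, then dye-loaded at room temperature.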
# TRPML1 inh: qHTS for Inhibitors of the Human Mucolipin Transient Receptor Potential 1 (TRPML1); Mucolipin-1 (Homo sapiens), Q9GZU1; TRPML1-inducible cells, Ca2+ dye fluorescence, FDSS; stronger effect = lower value; inhibition of EC80 agonist-evoked calcium signal; activity change, negative = inhibition, % (test concentration not listed); hit rate 0.02% among 390,000; AID 624415, 2012; in the data active means activity change below about -50%; inconclusive means about -30% to -50%; inactive means above about -30%;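 also: stimulus is agonist 54-4 at its EC80 concentration; % is scaled to controls: 0 for no effect and ±100 for the full control effect; compound concentration not given in the record; the text of the record puts the active cut at -80%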
#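 Calcium fluorescence in TRPML1-DL cells induced overnight with Tet: a 110 s read after compound pin addition, then a 110 s antagonist read after challenge with 54-4 at 4 uM final (EC80).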
# Six1-Eya2 inh: qHTS Assay for Inhibitors of the Six1/Eya2 Interaction; AlphaScreen GST-Six1/His-Eya2 binding, biochemical; stronger effect = lower value; control for the full effect not named in the record; activity change, % (concentration not given with the values); hit rate 0.56% among 360,000; Homeobox protein SIX1 (Homo sapiens) + Protein phosphatase EYA2 (Homo sapiens), …; in the data active = activity change below about -65%; inconclusive = about -30% to -65%; inactive = above about -30%; also: % is scaled to controls: 0 for no effect and ±100 for the full control effect
# Target sequence (O00167 whole entry, looked up): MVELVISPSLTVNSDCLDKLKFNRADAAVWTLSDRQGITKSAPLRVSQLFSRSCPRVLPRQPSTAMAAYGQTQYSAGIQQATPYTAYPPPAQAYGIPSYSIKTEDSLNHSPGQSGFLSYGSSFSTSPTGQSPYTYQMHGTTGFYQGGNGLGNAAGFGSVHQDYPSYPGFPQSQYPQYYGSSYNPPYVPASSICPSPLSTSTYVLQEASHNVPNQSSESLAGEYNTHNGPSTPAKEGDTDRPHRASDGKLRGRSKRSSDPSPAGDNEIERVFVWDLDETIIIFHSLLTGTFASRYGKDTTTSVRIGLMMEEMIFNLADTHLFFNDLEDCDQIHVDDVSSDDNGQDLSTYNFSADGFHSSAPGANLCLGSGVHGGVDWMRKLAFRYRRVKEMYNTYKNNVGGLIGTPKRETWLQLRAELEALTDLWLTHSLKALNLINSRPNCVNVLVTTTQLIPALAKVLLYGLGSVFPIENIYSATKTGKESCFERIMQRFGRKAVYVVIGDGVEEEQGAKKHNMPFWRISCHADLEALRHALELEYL
# Target sequence (Q15475 whole entry, looked up): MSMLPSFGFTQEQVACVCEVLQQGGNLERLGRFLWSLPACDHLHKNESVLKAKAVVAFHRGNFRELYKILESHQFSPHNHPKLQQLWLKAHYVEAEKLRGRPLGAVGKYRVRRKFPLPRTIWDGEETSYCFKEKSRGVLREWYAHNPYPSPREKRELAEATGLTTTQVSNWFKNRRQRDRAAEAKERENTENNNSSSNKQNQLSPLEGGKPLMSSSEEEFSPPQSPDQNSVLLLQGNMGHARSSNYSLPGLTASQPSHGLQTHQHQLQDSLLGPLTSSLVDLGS
#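 GST-Six1 + His-Eya2 (5X stock: 250/500 nM); Tris pH 8.0, 300 mM NaCl, 0.05% BSA, 0.02% Tween 20; GSH donor/Ni acceptor beads; 1 h 37 °C dark; AlphaScreen readout.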
# PINK1 modulator: A Quantitative High throughput Screen to Identify Chemical Modulators of PINK1 Expression. PINK1 immunofluorescence, high-content cytometry, 24 h. Potency, µM (series often up to 76.6 µM), without a hit: top-dose activation (PINK1 increase), actives largely listed as activators. hit rate 0.2% among 410,000. AID 624263, 2012; active = well fitted activation curve with a large enough effect; inconclusive = small, poorly fitted or top-dose-only effect; inactive = flat fitted curve, though single readings scatter; cell line not stated here;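 also: potency is read from the fitted curve at half-maximal effect; % of control where 0% means no effect; nearly all actives have a fitted effect of over 65% in size; a mitochondrial uncoupler was the plate control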
#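 PINK1 protein level read as immunofluorescence by microplate cytometer in a fixed, stained stable cell line after 24 h exposure to five compound concentrations, with CCCP as control.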
# * = called active by the depositor; ? = inconclusive; · = no result given; & = joins results of further samples; [ ] = another dose, or the depositor's remark. Some of the compounds tested, so the mix of outcomes need not match the whole.
SMILES,D2 agonist,D2 PAM,TRPML1 ag,TRPML1 inh,Six1-Eya2 inh,PINK1 modulator
COc1ccc(C(c2nnnn2-c2ccc(OC)cc2)N2CCC3(CC2)C(=O)NCN3c2ccccc2)cc1 (stereo not given),1.2,-12,-0.8,·,-20,-0.1%
COc1ccc(CC2NCC(O)C2OC(C)=O)cc1 (stereo not given),-3.7,-6,-0.3,4,2,-1.3%
CC(=O)OC1(C)CC(C)C(=O)C(C(O)CC2CC(=O)NC(=O)C2)C1 (stereo not given),-2.3,-7,0.1,-13,1,-1.3%
FC(F)(F)c1cccc(NC2=NCCCS2)c1,-4.1,-39,-0.8,9,9,1.9%
COc1cc(/C=C/c2nc3ccccc3c(=O)n2-c2cccc(O)c2)ccc1O,4.5,14,1.1,-12,3,5.0%
CC(C)N1C(=O)NC(=O)C2(Cc3cc([N+](=O)[O-])ccc3N(C)C2c2ccccc2)C1=O (stereo not given),1.4,-11,-0.3,0,-9,2.5%
Cc1nn(CC(C)C)c(Cl)c1C(=O)O,-2.4,-1,0.0,8,35,-0.5%
CC(C)c1ccc(NC(=O)CCNC(=O)N2C[C@H]3C[C@@H](C2)c2cccc(=O)n2C3)cc1,-3.9,-29,·,·,9,-0.3%
c1ccc(CN2COC3CCCCCC32)cc1 (stereo not given),-4.2,-7,-0.4,·,1,0.3%
N=C1c2ccccc2CN1NC(=O)c1ccccc1,0.5,-7,-0.4,-21,8,-1.3%
O=C(Cc1ccc(N(CCCl)CCCl)cc1)NC(Cc1ccc(Cl)cc1)C(=O)O (stereo not given),-3.6,-3,-0.6,-3,-2,0.4%
O=[N+]([O-])c1ccc(N2CCNCC2)cc1Sc1ccccn1,5.3,-1,-0.7,1,-2,-0.3%
Cc1cccc(C)c1N1CCN(c2c(C)cccc2C)CC1,-0.2,-4,-0.6,-1,-5,1.6%
COC(=O)C1=C(c2ccc(OC(F)(F)F)cc2)C[C@@H]2CC[C@H]1N2C(=O)NC1Cc2ccccc2C1,-2.5,-4,-0.2,-13,0,1.3%
CCN(CC)CCCNC(=O)c1c(O)c2ccccc2n(Cc2ccccc2)c1=O,-1.6,-51,0.6,34,22,-0.3%
COc1ccc(Cn2c(N)c(C(=O)NCc3ccco3)c3nc4ccccc4nc32)cc1OC,-6.9,-22,0.1,-7,30,0.0%
CC(C)CC12CN3CCN(CC(C3)C1O)C2 (stereo not given),-6.1,-17,0.5,5,2,4.5%
NCCc1nc2ccccc2s1,1.4,-3,-0.4,-9,-1,-0.6%
CC(C)c1onc(C(=O)N2CCC3(CC2)OCCO3)c1[N+](=O)[O-],5.0,2,-0.5,18,3,-0.4%
CCN(CC)S(=O)(=O)c1ccc(NN=C(C#N)C#N)cc1,-14,-15,0.6,-14,-11,9.7%
CCOc1cccc(N2C(=O)CC(=O)NC2=O)c1,-3.0,-1,0.9,13,4,-0.6%
CC/C(=C\C=C\[C@@H]1C=C[C@@H]2CCC[C@H]2[C@@H]1C(=O)c1ccc[nH]1)[C@@H]1O[C@@H]([C@@H](C)C(=O)O)CC[C@@H]1C,3.1,4,20,-5,-8,-0.5%
ClCCOCCCl,-3.5,-9,0.5,4,0,0.6%
COc1ccc(Cc2nccc3cc(OC)c(OC)cc23)cc1OC,-0.1,6,0.6,17,-23,1.4%
N#CCCn1cc(C(=O)Nc2ccccc2Cl)c(-c2ccc([N+](=O)[O-])cc2)n1,-1.1,-9,-0.7,8,1,-1.3%

# Results in TRPML1 ag, for some of the entries so far:
canonical_smiles | TRPML1 ag
COC(=O)C1=C(c2ccc(OC(F)(F)F)cc2)C[C@@H]2CC[C@H]1N2C(=O)NC1Cc2ccccc2C1 | -0.2
CCN(CC)CCCNC(=O)c1c(O)c2ccccc2n(Cc2ccccc2)c1=O | 0.6
COc1ccc(Cn2c(N)c(C(=O)NCc3ccco3)c3nc4ccccc4nc32)cc1OC | 0.1
CC(C)CC12CN3CCN(CC(C3)C1O)C2 (stereo not given) | 0.5
NCCc1nc2ccccc2s1 | -0.4
CC(C)c1onc(C(=O)N2CCC3(CC2)OCCO3)c1[N+](=O)[O-] | -0.5
CCN(CC)S(=O)(=O)c1ccc(NN=C(C#N)C#N)cc1 | 0.6

# Given with tabs: entries from further up
SMILES	D2 agonist	D2 PAM	TRPML1 ag	TRPML1 inh	Six1-Eya2 inh	PINK1 modulator
N=C1c2ccccc2CN1NC(=O)c1ccccc1	0.5	-7	-0.4	-21	8	-1.3%
O=C(Cc1ccc(N(CCCl)CCCl)cc1)NC(Cc1ccc(Cl)cc1)C(=O)O (stereo not given)	-3.6	-3	-0.6	-3	-2	0.4%

# Remaining list, next part:
SMILES,D2 agonist,D2 PAM,TRPML1 ag,TRPML1 inh,Six1-Eya2 inh,PINK1 modulator
COC(=O)C1=C(c2ccc(OC)c(OC)c2)C[C@@H]2CC[C@H]1N2C(=O)NCC1CC1,0.0,-3,-0.1,37,6,1.8%
c1coc(CNCCc2c[nH]c3ccccc23)c1,3.6,-18,-0.6,3,-10,2.6%
O=C(Nc1ccc(Cl)c(Cl)c1)c1ccco1,-2.4,10,0.1,-5,0,3.8%
Cc1cc(C)c(C2=NOC(O)(C(F)(F)F)C2)c(=O)[nH]1 (stereo not given),0.0,-13,0.6,9,13,-0.8%
CC(=O)Nc1ccc(S(=O)(=O)N2Cc3cnnn3-c3ccccc3C2C#N)cc1 (stereo not given),-3.8,-9,1.2,-6,5,-0.9%
CS(=O)(=O)N1Cc2ccccc2-n2nncc2C1,-1.0,-1,0.3,24,5,-0.3%
CN1CC[C@@]2(C)c3cc(O)ccc3N(C)[C@@H]12,9.4&13,22&9,-0.1&0.0,-8&1,-1&4,5.6%&0.4%
Cc1ccc(N=C(/N=C(\N)N[N+](=O)[O-])Nc2ccc(C)cc2)cc1,-0.8,-2,0.2,-5,19,3.5%
CCCC/C(C)=C/[C@@H](NP(=O)(c1ccccc1)c1ccccc1)c1ccccc1,-3.1,-10,1.2,3,-4,2.6%
CC(C)(C)P(=O)(NCc1ccccc1)c1ccccc1 (stereo not given),-3.2,-9,2.2,-7,4,1.4%
c1ccc2c(c1)CNCc1cnnn1-2,3.1,-2,1.3,20,6,0.4%
C=CCn1c(O)c(C(C)=NCc2ccco2)c(=O)[nH]c1=O,-2.6,0,-0.2,-15,-2,-2.0%
CCC(C)n1c(O)c(/C=N/Nc2nc3c(c(=O)n(C)c(=O)n3C)n2C)c(=O)[nH]c1=S (stereo not given),1.4,-5,-0.1,16,-86*,-1.1%
CC(C)OC(=O)C1C(=O)NC2(C)CC1c1ccccc1O2 (stereo not given),-2.7,12,-0.5,3,-1,0.1%
O=C1CC(c2ccccc2Br)c2c(c3ccccc3oc2=O)O1 (stereo not given),·,·,-0.4,-10,·,1.1%
O=C1N(CN2CCOCC2)c2ccccc2C1(O)c1c[nH]c2ccccc12 (stereo not given),-2.0,-6,-0.2,-11,-2,-1.0%
C[C@@H]1CN([C@H](C)CO)C(=O)CCCn2nncc2CO[C@@H]1CN(C)C(=O)Oc1ccccc1,-0.7,-5,0.8,19,9,-0.4%
NNC(=O)CN1C(=O)CN=C(c2ccccc2)c2cc(Br)ccc21,0.9,-2,0.7,4,-3,2.1%
CN1CCN(Cc2cc(=O)n3ccsc3n2)CC1,-5.9,0,4.8,15,2,0.1%
C[C@]12CCC3C(CC[C@H]4C[C@@H](O)CC[C@]34C)C1C[C@@H](O)[C@@H]2O (stereo not given in full),1.0,0,-0.2,6,-1,1.0%
COC1C(O)C(C)OC(OC2CCC3(C)C(CCC4C3C(O)CC3(C)C(C5=CC(=O)OC5)CCC43O)C2)C1O (stereo not given),1.2,3,0.3,-11,8,-1.1%
Cc1cc(C)c(S(=O)(=O)N2Cc3ccccc3-n3nncc3C2)c(C)c1,-1.6,1,0.4,-12,-8,0.5%
Cc1onc(-c2ccccc2)c1C(=O)N1CCC2(CC1)OCCO2,0.3,1,-0.5,-11,5,-3.8%[38.3 µM]
C[C@]12CCC3=C4CCC(=O)C=C4CC[C@H]3C1CC[C@@H]2O (stereo not given in full),-3.8,-7,-0.8,34,-1,0.3%
O=c1[nH]c(=O)n(CCc2ccccc2)c(O)c1C=NCc1ccc2c(c1)OCO2,-0.9,15,0.8,-3,4,?
# Later entries.
SMILES,D2 agonist,D2 PAM,TRPML1 ag,TRPML1 inh,Six1-Eya2 inh,PINK1 modulator
Cc1ccc(NC(=O)c2cccn(Cc3ccccc3C)c2=O)c(C)c1,·,·,1.3,44,·,0.9%
COc1c2c(cc3c1OCO3)CC[N+](C)=C2,-1.5,-4,0.4,-8,4,2.2%
Cc1cccnc1-n1c(-c2ccccc2)nc2ccccc2c1=O,-0.5,1,0.0,-2,-2,-1.1%
O=C(Nc1ccccc1)Oc1ccccc1,-2.5,1,-0.3,-5,-3,?
O=S(=O)(c1ccc(F)c(F)c1F)N1CCN(c2ncnc3sccc23)CC1,2.4,0,-0.5,3,0,?
CCCCC(=O)N/N=C/c1c(O)n(Cc2ccc(F)cc2)c(=O)[nH]c1=O,-7.1,-27,-0.4,6,-68*,-3.3%
CC(C)n1cc(C(=O)N(CC(=O)NC(C)(C)C)Cc2ccccc2)cn1,-3.4,1,0.0,5,1,1.1%
CCN(CC)CCN=Cc1c(O)n(Cc2ccccc2)c(=O)[nH]c1=O,-0.2&-2.2,-7&6,0.6&1.0,5&-5,-5&2,-0.7%
CC(=O)NC(Cc1ccc(N(CCCl)CCCl)cc1)C(=O)NC(CC(C)C)C(=O)O (stereo not given),2.6,-3,0.7,-7,3,-1.9%
COC(=O)C1=CCCN(C)C1,1.1,2,-0.4,0,7,2.3%
O=C(c1cc(C(=O)NCc2ccccc2)c(=O)n(Cc2ccccc2)c1)c1cc(Cl)ccc1O,3.9,27,2.4,27,-11,0.6%
O=C1NC(=S)N(c2ccccc2F)C(=O)/C1=C\c1cccs1,-8.5,-30,-0.3,9,-2,-2.1%
COC(=O)C1=C(c2ccccc2OCc2ccccc2)C[C@@H]2CC[C@H]1N2C(=O)NCc1ccc([N+](=O)[O-])cc1,-3.6,-12,-0.5,-8,-6,-1.5%
C/C(=C\c1ccc(N(C)C)cc1)[N+](=O)[O-],-4.8,-18,5.0,14,-2,-7.3%[38.3 µM]
COC(=O)C1=C(c2ccc(OCc3ccccc3)cc2)C[C@@H]2CC[C@H]1N2C(=O)NCc1ccc2[nH]ccc2c1,-4.7,7,0.0,-19,-13,1.4%
C[C@]12CCC3C(CC[C@H]4[C@H](O)[C@H](O)CC[C@]34C)C1CCC2=O (stereo not given in full),4.0,-1,-0.2,5,-2,1.0%
NCC(CC(=O)O)c1ccc(Cl)cc1 (stereo not given),-1.6,-2,-0.5,3,7,3.5%
CCCCN1C(=O)/C(=C/C=C/c2ccco2)C(=O)NC1=S,-4.7,-9,3.6,-12,-10,1.1%
